TRPML1 agonist – activates the human TRPML1 channel | Q9GZU1 | TRPML1-expressing cells, Ca2+ dye fluorescence, FDSS; host cell line not named in the record; reference of the full effect not given here | activation, % (no concentration beside the values) | 0.12% of 410,000 active | AID 624414; in the data active = activation above about 50%; inconclusive = about 30% to 50%; inactive = below about 30%; note: 0% is about no effect; the text of the record puts the active cut at 80%
Target sequence (Q9GZU1 whole entry, looked up): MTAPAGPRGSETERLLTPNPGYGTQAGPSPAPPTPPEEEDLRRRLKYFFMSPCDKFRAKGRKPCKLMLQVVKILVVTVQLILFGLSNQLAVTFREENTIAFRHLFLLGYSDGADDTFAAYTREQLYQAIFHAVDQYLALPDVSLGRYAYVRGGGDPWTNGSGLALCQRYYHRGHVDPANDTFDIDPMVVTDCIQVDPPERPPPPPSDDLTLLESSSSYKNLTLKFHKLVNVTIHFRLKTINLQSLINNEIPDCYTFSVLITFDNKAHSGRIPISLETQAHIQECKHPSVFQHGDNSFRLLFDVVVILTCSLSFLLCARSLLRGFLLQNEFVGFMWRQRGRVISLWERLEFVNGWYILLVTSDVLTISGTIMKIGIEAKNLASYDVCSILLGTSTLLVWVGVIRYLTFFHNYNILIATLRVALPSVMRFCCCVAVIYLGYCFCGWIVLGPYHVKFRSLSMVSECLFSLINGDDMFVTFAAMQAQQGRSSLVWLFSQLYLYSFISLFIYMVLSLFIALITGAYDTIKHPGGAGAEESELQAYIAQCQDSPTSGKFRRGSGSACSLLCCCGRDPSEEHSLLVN
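Agonist activity was taken from a 110 s kinetic Ca2+ dye read on the FDSS after pinning compounds onto TRPML1-DL cells. The cells were seeded at 1,500/well with Tet inducer, incubated about 16 h, then dye-loaded at room temperature.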
CtBP-E1A inh – blocks the CtBP interaction with E1A; AlphaScreen GST-E1A/His-CtBP binding, 1536-well; hits give low values; control for the full effect not named in the record; activity change, % (concentration not given with the values); 0.49% of 340,000 active; in the data active means activity change below about -65%; inconclusive means about -30% to -65%; inactive means above about -30%; note: % is set by controls: 0 for no effect and ±100 for the full control effect
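In 5 uL wells, 23 nL compound meets equimolar GST-E1A and His-CtBP (5X stock 125 nM each) for 2 h, 37 °C. Beads (5X, 50 ug/mL) then 1 h, 37 °C, dark.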
D2 potentiator – human D2 receptor positive allosteric modulation; P14416; potentiation, % (test concentration not listed); DiscoveRx D2 beta-arrestin cells, luminescence, 90 min; 100% = 57 uM dopamine signal; 0.23% of 360,000 active; AID 624464; active = potentiation of 50% or more; inconclusive = 30% to 50%; inactive = 30% or less;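 note: compound concentration not given in the record; tested on top of an EC20 dose of dopamine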
Target sequence (P14416 whole entry, looked up): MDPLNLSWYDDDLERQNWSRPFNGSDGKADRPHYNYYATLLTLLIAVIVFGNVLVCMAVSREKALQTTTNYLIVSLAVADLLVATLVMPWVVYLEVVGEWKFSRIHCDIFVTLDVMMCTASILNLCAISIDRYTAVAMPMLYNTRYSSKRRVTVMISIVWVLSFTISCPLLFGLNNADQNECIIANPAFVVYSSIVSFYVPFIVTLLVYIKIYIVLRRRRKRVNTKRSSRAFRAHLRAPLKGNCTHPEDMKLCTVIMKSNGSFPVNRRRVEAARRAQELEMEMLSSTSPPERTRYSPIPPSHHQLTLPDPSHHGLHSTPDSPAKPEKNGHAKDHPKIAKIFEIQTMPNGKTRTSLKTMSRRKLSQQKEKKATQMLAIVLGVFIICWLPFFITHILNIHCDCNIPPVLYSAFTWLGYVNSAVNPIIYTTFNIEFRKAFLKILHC
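D2 cells co-treated with compound plus 50 nM dopamine (EC20) for 90 min at 37 deg C to detect potentiation. Beta-arrestin recruitment was read as enzyme-fragment luminescence after 1 h at ambient temperature. Full response was set by 57 uM dopamine.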
Six1-Eya2 inh – Six1/Eya2 interaction inhibition | 0.56% of 360,000 active | activity change, % (no concentration beside the values) | AlphaScreen GST-Six1/His-Eya2 binding, biochemical; hits give low values; control for the full effect not named in the record; in the data active = activity change below about -65%; inconclusive = about -30% to -65%; inactive = above about -30%; note: % is set by controls: 0 for no effect and ±100 for the full control effect; compound concentration not given in the record
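Compounds are tested against tagged Six1 and Eya2 proteins bridged by glutathione donor and nickel acceptor beads; after a one-hour incubation at 37 °C without light, AlphaScreen emission is recorded.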
PINK1 expr mod – modulators of PINK1 expression; 0.2% of 410,000 active; Potency, µM (doses to about 76.6 µM), for the others: at the top dose activation (PINK1 increase), usual class: activators; PINK1 immunofluorescence, high-content cytometry, 24 h; active = well fitted activation curve with a large enough effect; inconclusive = small, poorly fitted or top-dose-only effect; inactive = flat fitted curve, though single readings scatter; cell line not stated here;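 note: potency is the fitted concentration of half-maximal effect; % of control where 0% means no effect; nearly all actives have a fitted effect of over 65% in size; a mitochondrial uncoupler was the plate control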
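Fluorescence from anti-PINK1 antibody, together with nuclear and cell stains, was scanned on a laser-scanning cytometer. Before staining, stable-line cells were incubated 24 hours with compounds at 5 concentrations; primary antibody 12 h at 10 degrees C.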
D2 ag – human D2 receptor agonism in beta-arrestin assay; P14416; DiscoveRx PathHunter D2 beta-arrestin, luminescence, 90 min; 100% = 57 uM dopamine signal; activation, % (no concentration beside the values); 0.084% of 360,000 active; in the data active = activation above about 40%; inconclusive = about 15% to 40%; inactive = below about 15%; note: compound concentration not given in the record; the text of the record calls up to 30% inactive
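Agonist mode: compounds alone added to overnight-plated D2 PathHunter cells for 90 min at 37 C, with 57 uM final dopamine (EC100) defining full response. Beta-arrestin recruitment detected by chemiluminescent reagent, read after 1 h at ambient temperature.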
Starred values were filed as active, the others as inactive; u = inconclusive; x = no result given; [ ] = dose if it differs, or a comment. No enrichment for hits. About 1.3% of those tested had a hit in this group.

Structure | CtBP-E1A inh | TRPML1 agonist | D2 ag | PINK1 expr mod | Six1-Eya2 inh | D2 potentiator
COC(=O)[C@]1(CC(C)C)N[C@H](c2ccc(-c3ccc(F)cc3)cc2)[C@@H]2C(=O)N(C)C(=O)[C@@H]21 | 2.8 | 0.8 | 1.3 | 0.2% | -4.0 | 0.3
Cn1ccs/c1=N\C(=O)Nc1ccccc1 | x | 0.2 | 1.4 | 0.6% | 7.0 | -8.7
O=C(N/N=C/c1ccc(O)cc1)c1[nH]c2ccc(Br)cc2c1-c1ccccc1 | 0.6 | 2.0 | -3.5 | 2.5% | 2.9 | -4.6
Cc1ccc(-c2c(C(=O)N/N=C/c3sccc3C)nnn2-c2nonc2N)cc1 | x | 0.2 | -4.5 | -1.5% | -6.0 | -9.6
Cc1ccc(/C=C/C(=O)N2CCN(S(=O)(=O)c3cccs3)CC2)o1 | 6.2 | 0.1 | -0.5 | 0.7% | 0.2 | -3.0
COc1ccc(CNc2cc(C)ccc2C)c(OC)c1OC | -9.2 | 2.7 | 0.2 | 4.1%[38.3 µM] | -17.4 | -2.9
CN1CC(=O)N(C)c2nc(Br)n(C)c2C1=O | 5.1 | 0.2 | -0.1 | -0.2%[38.3 µM] | 1.5 | -13.2
COc1ccc(OC)c(S(=O)(=O)NCCC(C)C)c1 | 2.7 | 1.2 | -0.9 | 1.1% | 1.9 | -7.9
c1cc2c3c(cccc3c1)NC1(CCCCC1)N2 | -5.3 | 0.3 | -5.1 | 5.2%[38.3 µM] | -5.6 | -10.6
COc1ccc(CCNS(=O)(=O)c2c(C)[nH]c(C)c2C(=O)N2CCCCC2)cc1OC | 15.1 | -0.5 | -7.6 | -0.2% | 15.2 | -8.4
O=C(N/N=C/c1cccc2ccccc12)C(=O)N1CCCC1 | -4.7 | 1.0 | 2.5 | 0.7% | -0.8 | -0.5
CCc1cc(OCCOCCN(C)C)ccc1Cl | 9.4 | -0.4 | -1.5 | 3.7% | 0.2 | -24.7
CCc1ccc(C(=O)NNc2ccc(Cl)cc2)cc1 | x | -0.8 | -11.3 | 0.2% | 9.8 | -35.7
c1ccc(C2=Nc3c(ccc4ccccc34)C(c3ccncc3)=NN2)cc1 | -6.3 | 1.9 | -5.6 | 1.8% | -27.3 | -4.6
O=C(NCC1CCCO1)c1ccc(Cn2c(=S)[nH]c3ccccc3c2=O)cc1 (configuration not stated) | -14.4 | -1.0 | 1.4 | 3.5% | 1.7 | -13.8
Cc1ccccc1OCC(=O)NCCC(=O)O | 6.5 | -0.2 | -1.0 | x | 1.4 | -10.5
CCOc1ncccc1C(=O)Nc1ccc(S(=O)(=O)Nc2nc(C)cc(C)n2)cc1 | 6.4 | 0.7 | -1.0 | -1.1% | -8.9 | -1.4
COc1ccc(C(=O)COC(=O)c2cc([N+](=O)[O-])ccc2N2CCOCC2)c(OC)c1 | 3.1 | -0.6 | 1.7 | -1.2% | -22.7 | -10.6
O=C1c2ccccc2[C@@H]2C[C@H]3O[C@H]3CCN12 | 1.5 | -0.6 | -3.9 | 0.8% | 1.8 | -4.4
O=C(COC(=O)/C=C/c1cccc(Br)c1)NCCc1ccccc1 | 2.4 | 1.3 | -1.5 | 1.9% | 2.5 | -4.2
O=C(O)C1CCCCC1C(=O)Nc1ccc(S(=O)(=O)N2CCCC2)cc1 (configuration not stated) | 2.6 | -0.3 | -1.1 | -1.2% | -3.2 | -4.7
Cc1cccc(Nc2nnc(SC3CCOC3=O)s2)c1C (configuration not stated) | 1.6 | -0.5 | -5.7 | 9.1% | -3.4 | -7.5
COCOCCn1cc(CN2CCS(=O)(=O)N(Cc3ccc(-c4ccc(OC)nc4)cc3)C(C)C2=O)nn1 (configuration not stated) | 6.1 | x | 0.4 | 1.6% | 3.5 | x
O=C(NN1C(=O)NC2(CCCCC2)C1=O)c1cc2ccccc2o1 | x | 0.3 | -3.7 | 0.3% | 6.9 | -0.7
COc1ccc(CCCc2n[nH]c(=S)o2)c(C)c1 | x | -0.1 | 0.0 | 1.3% | -2.5 | -4.5
COc1ccc(Nc2cc(=O)n(C3CCCCC3)c(=O)[nH]2)c(OC)c1 | -0.8 | -1.4 | 2.3 | 1.7% | -6.7 | -15.1
CCOc1ccc(N(CC(=O)NC2CCCCC2)C(=O)CCCC(=O)Nc2ccccn2)cc1 | -19.1 | 3.4 | -2.4 | 2.7% | -2.1 | -8.7
CC1(C)CC(=O)C2=C(C1)Nc1cc(C(=O)c3ccccc3)ccc1NC2c1ccccn1 (configuration not stated) | 1.1 | -0.2 | 2.1 | -2.5% | -1.6 | -16.5
COc1ccc(NC(=O)C(C)N2C(=O)C3CC=C(Cl)CC3C2=O)cc1 (configuration not stated) | 18.2 | 0.7 | -6.4 | -0.2% | -12.7 | -22.4
CCCCCC(=O)Nc1cc(S(=O)(=O)N2CCOCC2)ccc1N1CCCC1 | 17.9 | 1.9 | -4.0 | -0.4% | 3.3 | -9.4
c1ccc(Cc2nc3ccccc3[nH]2)cc1 | -14.5 | 0.3 | -4.4 | 0.8% | 5.7 | -16.0
Nc1nnnn1/N=C/c1cccc(OCc2ccccc2Cl)c1 | -0.4 | -0.2 | -3.9 | u | -0.3 | -19.6
O=S(=O)(Nc1ccc2ccccc2c1)c1ccccc1 | 1.7 | 2.9 | 0.6 | 6.7% | 6.0 | -22.8
O=C(Nc1cccc(C(F)(F)F)c1)NC1CCCCC1 | 16.9 | 0.1 | -9.0 | 3.0% | 7.7 | -41.5
OCC[C@H]1C[C@@H](O)[C@H](O)[C@@]2(Cc3ccccc3CCO2)O1 | 4.9 | -0.7 | -1.8 | 0.0% | -0.3 | 0.5
CC(C)OC(=O)CSc1nnc(-c2ccccn2)n1C | -8.6 | 1.1 | -1.1 | 3.2% | -0.2 | -11.1
CC(C)(C)N=C1NN=C(c2cc3ccccc3o2)CS1 | 2.2 | -0.2 | -12.5 | u | -19.8 | -50.9
CC(=O)NC(NC(=S)Nc1cccc(Br)c1)C(Cl)(Cl)Cl (configuration not stated) | 7.9 | 0.7 | -18.6 | 0.3% | -10.1 | -1.6
N#Cc1ccc(-c2nc3ccc(Cl)cn3c2Cc2ccsc2)cc1 | -29.2 | 2.1 | -3.8 | 3.6% | 8.3 | -5.6
CC(=O)c1nn(-c2ccccc2)cc1C(=O)c1ccc(C)cc1 | 29.4 | 2.4 | -20.4 | 0.2% | 25.5 | -10.2
O=S(=O)(c1cccc2cccnc12)N1CCN(Cc2ccc3c(c2)OCO3)CC1 | -6.2 | -1.0 | -2.9 | -1.1% | -8.3 | -26.6
CC(C)C(=O)NNS(=O)(=O)c1ccccc1[N+](=O)[O-] | 14.3 | 1.0 | -1.7 | -1.1% | 17.4 | -15.0
COc1ccc(S(=O)(=O)N2CCOCC2)cc1NC(=O)c1ccc(Cl)cc1 | -0.9 | 2.3 | 1.9 | 4.6% | 5.3 | -64.1
COc1ccc(CCN2CC(C(=O)NCCN3CCNC3=O)CCC2=O)cc1 (configuration not stated) | -12.8 | -0.4 | -7.5 | 0.7% | -7.5 | -10.2
COC(=O)CNC(c1ccccc1Cl)c1cc(Br)ccc1NS(=O)(=O)c1ccc(C)cc1 (configuration not stated) | -0.6 | -0.2 | -3.9 | 0.6% | -13.3 | -6.9
CCn1c(=NC(=O)CN2C(=O)CCC2=O)sc2c(OC)ccc(OC)c21 | -24.0 | -0.2 | -2.4 | 5.7% | 2.8 | -10.3
COc1cc(-c2nnc(SCC(=O)Nc3ccc4c(c3)OCCO4)o2)cc(OC)c1OC | 2.7 | 0.2 | -2.9 | 9.9% | -1.8 | -1.5
Cc1ccc(NC(=O)NN(C)c2c(Cl)c(Cl)nn2C)cc1 | 0.7 | -0.6 | -1.8 | -0.9% | 6.2 | -13.7
COc1ccc(NC(=O)Nc2cccnc2)c(OC)c1 | 7.9 | 0.0 | -3.0 | -0.6% | -6.9 | -6.7
Cc1noc(C)c1C(=O)N1CCc2ccccc21 | 5.0 | 0.0 | -1.8 | 0.4%[38.3 µM] | 2.0 | -6.2

(list continues)
Structure | CtBP-E1A inh | TRPML1 agonist | D2 ag | PINK1 expr mod | Six1-Eya2 inh | D2 potentiator
CC1CCC2(CC1)SCC(=O)N2c1ccc(F)cc1 (configuration not stated) | 4.3 | 0.8 | -4.3 | u | 2.2 | -7.8
CCCCC(=O)Nc1cccc(NC(=O)C(C)C)c1 | 3.3 | -0.1 | -5.5 | -0.5% | -1.3 | 0.8
CCc1nc2c(OCCC3CCCCC3)cccn2c1N(C)C(=O)C(C)C | 0.3 | 8.1 | -5.0 | 18.3% | 0.5 | -14.4
C[S+](CC[C@H](N)C(=O)O)C[C@H]1O[C@@H](n2cnc3c(N)ncnc32)[C@H](O)[C@@H]1O (some centres not stated) | 5.8 | 0.1 | 3.5 | 1.1% | 5.2 | -6.6
Nc1[nH]c(C(=O)c2ccccc2)c(-c2ccc(Br)cc2)c1C(=O)c1ccc(Br)cc1 | 3.3 | -0.4 | x | 6.8% | 1.4 | x
Cc1cc(Br)ccc1N=C1C(=O)Nc2ccccc21 | x | 1.3 | -16.2 | -0.6% | 1.7 | -7.8
O=C(NCc1ccccc1CN1CCCCC1)c1ccccc1N1CCCC1=O | 3.3 | 4.0 | 0.1 | -0.3% | 7.1 | -1.0
COc1ccccc1C1C=C(c2ccc(Cl)cc2)Nc2nc(N3C(=O)CCC3=O)nn21 (configuration not stated) | -12.4 | 1.9 | -7.5 | u | -20.1 | -19.6
O=C(NCC1(N2CCCCC2)CCCCC1)c1ccc(NS(=O)(=O)c2ccc(F)cc2)cc1 | 3.7 | 0.3 | -1.3 | -5.6% | 2.1 | -22.2
O=C(CN1C(=O)NC(Cc2c[nH]c3ccccc23)C1=O)NC1CCCCC1 (configuration not stated) | x | 0.0 | -2.2 | 0.5% | 4.5 | 7.3
Cc1cccc(Oc2sc(C(=O)c3ccccc3)c(N)c2C#N)c1C | 1.2 | 0.2 | -4.7 | 0.3% | -5.7 | 2.8
CCc1cc(/C(Cc2ccccn2)=N\O)c(O)cc1O | -6.0 | 3.9 | 2.0 | 11.2%[38.3 µM] | -18.8 | 6.6
O=C(NCCN1CCOCC1)N1c2ccccc2Sc2ccccc21 | -1.7 | 0.2 | 1.6 | -0.5% | -1.0 | -29.9
Cc1ccc(C(CNS(=O)(=O)c2ccc(F)cc2)N2CCN(C)CC2)cc1 (configuration not stated) | 7.9 | -0.4 | -2.3 | -0.5% | -3.4 | -22.9
CN1CCN(CC(=O)Nc2nc(-c3c[nH]c4ccccc34)cs2)CC1 | -0.1 | -0.3 | -2.2 | 6.6% | -12.6 | -7.9
CC(C)Oc1ccc(CCNC(=O)C2CCC(=O)N(C3CCCCCC3)C2)cc1 (configuration not stated) | 2.5 | 0.4 | 2.9 | -0.7% | 1.6 | -2.4
Cc1cc2ccccn2c1C(=O)c1ccc(F)cc1 | 37.8 | 0.0 | -1.5 | -1.2% | 17.1 | 9.7
C/C(=N\NC(=O)COc1ccc(C)cc1C(C)C)c1cc2ccccc2o1 | 1.0 | 0.7 | 2.9 | 12.0% | -10.5 | 0.7

From PubChem
